Source: PubChem
D2 potentiator: Beta-Arrestin HTS for Positive Allosteric Modulators of the Human D2 Dopamine Receptor: Potentiators; hit rate 0.23% among 360,000; AID 624464, 2012; DiscoveRx D2 beta-arrestin cells, luminescence, 90 min; 100% = 57 uM dopamine signal; potentiation, % (concentration not given with the values); active = potentiation of 50% or more; inconclusive = 30% to 50%; inactive = 30% or less;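 note: compound concentration not given in the record; tested on top of an EC20 dose of dopamine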
Target sequence (P14416 whole entry, looked up): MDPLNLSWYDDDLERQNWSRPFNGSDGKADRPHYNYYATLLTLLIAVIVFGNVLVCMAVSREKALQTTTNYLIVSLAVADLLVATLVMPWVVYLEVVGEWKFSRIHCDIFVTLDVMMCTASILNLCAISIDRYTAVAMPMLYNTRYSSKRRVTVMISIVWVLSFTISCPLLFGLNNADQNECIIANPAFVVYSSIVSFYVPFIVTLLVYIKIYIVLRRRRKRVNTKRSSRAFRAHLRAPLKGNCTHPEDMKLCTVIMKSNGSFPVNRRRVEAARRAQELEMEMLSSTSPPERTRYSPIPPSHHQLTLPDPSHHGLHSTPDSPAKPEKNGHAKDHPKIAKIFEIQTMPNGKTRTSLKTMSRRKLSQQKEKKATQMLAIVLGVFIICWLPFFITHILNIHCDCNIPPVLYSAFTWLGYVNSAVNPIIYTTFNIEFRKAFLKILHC
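D2 cells co-treated with compound plus 50 nM dopamine (EC20) for 90 min at 37 deg C to detect potentiation. Beta-arrestin recruitment was read as enzyme-fragment luminescence after 1 h at ambient temperature. Full response was set by 57 uM dopamine.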
gsp ag: qHTS for Agonist of gsp, the Etiologic Mutation Responsible for Fibrous Dysplasia/McCune-Albright Syndrome: qHTS; AID 624287, 2012; Potency, µM (titrated, usually from 76.9 µM), without a hit: at the highest dose activation (cAMP increase), hits mostly activators; gsp mutant cells, cAMP HTRF, 30 min; control for the full effect not named in the record; hit rate 0.13% among 340,000; active = well fitted activation curve with a large enough effect; inconclusive = small, poorly fitted or top-dose-only effect, or another doubt; inactive = no such curve, though single readings can be large or run the other way; cell line not stated here;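 note: phosphodiesterase inhibitor Ro 20-1724 added with compounds to block cAMP breakdown; potency is the fitted concentration of half-maximal effect; nearly all actives have a fitted effect of over 60% in size; about a fifth of the inactives were tested at one dose only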
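Cells in DMEM/10% FBS with G418 were pretreated with compounds in DMSO plus […] (300 uM stock) for 30 min at 37C. cAMP was measured by HTRF (cAMP-d2 plus anti-cAMP antibody-K) after 30 min at room temperature.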
D2 ag: Beta-Arrestin HTS for Positive Allosteric Modulators of the Human D2 Dopamine Receptor: Agonists; DiscoveRx PathHunter D2 beta-arrestin, luminescence, 90 min; 100% = 57 uM dopamine signal; activation, % (concentration not given with the values); hit rate 0.084% among 360,000; AID 624465, 2012; in the data active = activation above about 40%; inconclusive = about 15% to 40%; inactive = below about 15%; note: compound concentration not given in the record; the text of the record calls up to 30% inactive
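DiscoveRx PathHunter D2 beta-arrestin cells (2,100/well) attached overnight, then compound-stimulated 90 min at 37 C in HBSS/10 mM HEPES/0.1% Tween-20 buffer; beta-galactosidase complementation read by luminescence after 1 h at ambient temperature. Dopamine 57 uM final (EC100) as control.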
gsp antag: qHTS for Antagonists of gsp, the Etiologic Mutation Responsible for Fibrous Dysplasia/McCune-Albright Syndrome: qHTS; hit rate 0.4% among 340,000; gsp-mutant cells, cAMP HTRF, 30 min; control for the full effect not named in the record; Potency, µM (doses to about 76.9 µM), for inactives: at the top dose activity change, negative = inhibition, usual class: inhibitors; active = falling curve of any shape with a large fitted effect; inconclusive = falling curve, mostly with a smaller effect; inactive = flat or rising curve; cell line not stated here;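 note: intracellular cAMP measured with PDE inhibitor Ro 20-1724 present during compound exposure; potency is the fitted concentration of half-maximal effect; % is set by controls: 0 for no effect and ±100 for the full control effect; nearly all actives have a fitted effect of over 65% in size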
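Measurement of cellular cAMP by homogeneous time-resolved fluorescence following a 30 min compound exposure at 37C. The PDE inhibitor […] was present throughout; the assay buffer was DPBS with 0.05% BSA and 0.005% Tween 20.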
CtBP-E1A inh: qHTS Assay for Inhibitors of the CtBP/E1A Interaction | CtBP / adenovirus E1A interaction (AlphaScreen) | AlphaScreen GST-E1A/His-CtBP binding, 1536-well; stronger effect = lower value; control for the full effect not named in the record | activity change, % (test concentration not listed) | hit rate 0.49% among 340,000 | AID 651724, 2012; in the data active means activity change below about -65%; inconclusive means about -30% to -65%; inactive means above about -30%; note: % is set by controls: 0 for no effect and ±100 for the full control effect; compound concentration not given in the record
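Protein mix (5X: 125 nM each GST-E1A, His-CtBP) was incubated with pinned compound 2 h at 37 deg C in dark, in 50 mM Tris pH 8.0 buffer with 300 mM NaCl. Glutathione donor and nickel acceptor beads followed; AlphaScreen signal read after 1 h.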
Six1-Eya2 blk: qHTS Assay for Inhibitors of the Six1/Eya2 Interaction | hit rate 0.56% among 360,000 | activity change, % (test concentration not listed) | Homeobox protein SIX1 (Homo sapiens) + Protein phosphatase EYA2 (Homo sapiens), … | AlphaScreen GST-Six1/His-Eya2 binding, biochemical; stronger effect = lower value; control for the full effect not named in the record; in the data active = activity change below about -65%; inconclusive = about -30% to -65%; inactive = above about -30%; note: % is set by controls: 0 for no effect and ±100 for the full control effect; compound concentration not given in the record
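AlphaScreen with GST-Six1 and His-Eya2 (5X mix: 250 nM and 500 nM), glutathione donor and nickel acceptor beads; buffer 50 mM Tris pH 8.0, 300 mM NaCl, 1 mM TCEP; 1 h at 37 C in the dark.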
* marks the source's active call; other numbers are inactive results; ? = inconclusive; . = not tested or not shown; [ ] = dose if it differs, or a comment.

1. CC1=Nc2ccccc2N=C(NC(=O)CSc2nnnn2-c2ccccc2)C1c1ccccc1 (stereo not drawn)
2. O=C(Cc1ccccc1)NC1CCN(S(=O)(=O)c2cccc(F)c2)CC1
3. O=C(COc1ccc2c3c(c(=O)oc2c1)CCC3)NC1CCCCC1
4. O=c1c2ccccc2n2c(=S)[nH]nc2n1-c1ccccc1
5. COC(=O)C1=C(C)N(Cc2ccccc2)C(=O)N[C@H]1c1cccc(F)c1
6. COc1ccc(NC(=O)C/C(C)=N/NC(=O)C(=O)Nc2cccc(Cl)c2C)c(OC)c1
7. CCSc1nc2sc3c(c2c(=O)[nH]1)CCc1ccccc1-3
8. C[C@@H]1C=C(C(=O)N2CCN(C)CC2)O[C@H](OCc2ccc(CO)cc2)C1

entry no. | 1 | 2 | 3 | 4 | 5 | 6 | 7 | 8
D2 potentiator | -1 | -2 | -8 | -15 | -11 | -6 | -9 | -3
gsp ag | -25% | -16% | -17% | 29%[15.4 µM] | -26% | -72%[inhibitor] | 11% | .
D2 ag | -1.4 | 0.5 | -0.1 | -9.3 | -2.8 | -3.1 | 5.2 | 0.2
gsp antag | -20% | 9% | -9% | -7% | 8% | 5% | ? | 16%
CtBP-E1A inh | -6 | -10 | 10 | 2 | . | -4 | . | -1
Six1-Eya2 blk | -8 | 3 | -2 | 7 | 5 | 3 | 2 | 1

9. COc1cccc(N2CCN(S(=O)(=O)c3ccc(-c4coc(C)n4)cc3)CC2)c1
10. Cc1nc([N+](=O)[O-])c(NCCO)n1Cc1ccccc1
11. O=C(CCl)N1N=C(c2ccco2)CC1c1cccs1 (stereo not drawn)
12. CN(C(=O)CCc1ccccc1)c1nnc(-c2ccncc2)s1
13. Cc1oc(-c2ccccc2F)nc1CS(=O)CC(=O)NC1CCCC1 (stereo not drawn)
14. CC(=O)C1CCC2C3CCC4CC(=O)CCC4(C)C3C=CC12C (stereo not drawn)
15. COc1ccc(-c2nc(N)sc2C2(O)C(=O)Nc3c(Br)cc(F)cc32)cc1OC (stereo not drawn)
16. C[C@@H]1CN([C@H](C)CO)S(=O)(=O)c2ccc(C#Cc3ccccc3)cc2O[C@@H]1CN(C)C(=O)CN(C)C

entry no. | 9 | 10 | 11 | 12 | 13 | 14 | 15 | 16
D2 potentiator | -5 | -5 | -6 | -4 | -7 | -1 | -18 | -3
gsp ag | -11% | 3%[15.4 µM] | 2% | -10%[15.4 µM] | 6% | -18% | 9% | 19%
D2 ag | 12 | -1.1 | -7.2 | 6.0 | -3.8 | 4.1 | -5.0 | -6.6
gsp antag | -18% | 9% | 8% | . | 2% | -14% | 9% | .
CtBP-E1A inh | . | 4 | -1 | 0 | 2 | 3 | 1 | -7
Six1-Eya2 blk | -19 | 6 | -1 | 2 | 2 | 2 | 1 | -12

17. COC(=O)C1=C(N)Oc2cc(C)n(CC3CCCO3)c(=O)c2C1c1ccccc1OC (stereo not drawn)
18. CCS(=O)(=O)NCC(c1cccnc1)N1CCN(c2ccccc2)CC1 (stereo not drawn)
19. O=[N+]([O-])c1ccc(N/N=C2\CC3CC=CC23)c([N+](=O)[O-])c1 (stereo not drawn)
20. Cn1cc(C(=O)NCCc2ccccc2)c(=O)c2cc(S(=O)(=O)N3CCOCC3)ccc21
21. Nc1nonc1-n1nnc(C(=O)N/N=C/c2cccc(F)c2)c1CN1CCCC1
22. O=C(OCC(=O)N1CCN(C(=O)c2ccco2)CC1)c1cccc(O)c1
23. N#Cc1c(NCCCO)nc(NCc2ccccc2)c2c1CCN(Cc1ccccc1)C2
24. O=C(NC(=S)Nc1ccccc1N1CCOCC1)c1ccc([N+](=O)[O-])cc1

entry no. | 17 | 18 | 19 | 20 | 21 | 22 | 23 | 24
D2 potentiator | -8 | -7 | 19 | -7 | -13 | -14 | 0 | -10
gsp ag | -26% | -3% | -4%[15.4 µM] | -13% | -6% | 6% | 23% | -29%
D2 ag | -2.9 | -3.2 | ? | -3.4 | 0.9 | -3.1 | -0.3 | -0.7
gsp antag | 1% | -8% | ? | 5% | -2% | 15% | -7% | -3%
CtBP-E1A inh | -1 | 0 | -16 | 5 | 5 | -9 | -19 | -1
Six1-Eya2 blk | -2 | 7 | -69* | 3 | 1 | -9 | ? | -8

25. Cc1cccc(C)c1NC(=O)c1c(C)nn(-c2ccccc2)c1Cl
26. COc1ccc(CN2C(=O)NC(C)(c3ccc(C)cc3)C2=O)cc1F (stereo not drawn)
27. O=C(NCCCN1CCN(CCCNC(=O)c2ccc(F)cc2)CC1)c1ccc(F)cc1
28. CCOC(=O)C1=C(C)N=C2SC(C)C(=O)N2C1/C=C/c1ccccc1OC (stereo not drawn)
29. O=C(COc1ccc(Cl)cc1Cl)Nc1ccc(S(=O)(=O)NC2=NCCCCC2)cc1
30. CC(=O)C1=C(c2ccccc2)NC(=O)NC1c1ccc(O)c(Cl)c1 (stereo not drawn)
31. CC(C)N(Cc1c(O)ccc2c(=O)c(-c3ccc(Cl)cc3)coc12)C(C)C
32. COc1cccc(CCNC(=O)c2ccc(OC)c(OC3CCN(C(C)C)CC3)c2)c1

entry no. | 25 | 26 | 27 | 28 | 29 | 30 | 31 | 32
D2 potentiator | -4 | 2 | -32 | -8 | 0 | -2 | -17 | -18
gsp ag | 17% | -22% | -34%[inhibitor] | -41%[inhibitor] | -30%[inhibitor] | -3% | -1% | 2%
D2 ag | -0.7 | -0.7 | -0.1 | -2.9 | 3.9 | 5.6 | -5.2 | -1.2
gsp antag | -7% | -4% | 14% | 5% | -7% | -3% | -8% | 10%
CtBP-E1A inh | 2 | -2 | -3 | 2 | . | -8 | . | 6
Six1-Eya2 blk | 3 | -1 | -1 | -2 | -3 | 3 | 2 | -1

33. Cn1cnnc1SCc1ccc(C(=O)N/N=C/c2cccs2)cc1
34. Cc1csc(NC(=O)C2C3C=CC(C3)C2C(=O)O)n1 (stereo not drawn)
35. CCOc1ccc(OCCn2c(S(=O)(=O)O)nc3c(N)ncnc32)cc1
36. COCCN1CCN(c2c3c(nc4cc(-c5cccc(F)c5)nn24)CCC3)CC1
37. FC(F)Oc1ccc(-c2csc(Cc3nnc4n3CCCCC4)n2)cc1
38. CCN(CC)C(=O)Oc1cc(COC)nc(-c2ccccc2)n1
39. COCCn1c(SCC(=O)NC2CCCCC2C)nnc1-c1ccncc1 (stereo not drawn)
40. COc1ccccc1NS(=O)(=O)c1cc(C(=O)N2CCCCCCC2)ccc1C

entry no. | 33 | 34 | 35 | 36 | 37 | 38 | 39 | 40
D2 potentiator | -14 | -5 | -6 | -15 | 4 | -5 | -4 | 21
gsp ag | -23% | -55%[inhibitor] | ? | -15% | -47%[inhibitor] | 4%[15.4 µM] | 22% | 1%
D2 ag | 3.5 | -2.3 | -4.4 | -2.6 | -0.6 | -0.8 | 0.0 | -2.4
gsp antag | 0% | -2% | 13% | -6% | -1% | -17% | 5% | -9%
CtBP-E1A inh | . | -6 | -3 | 2 | 6 | 5 | 10 | -20
Six1-Eya2 blk | -5 | -10 | 5 | 3 | 3 | 10 | 2 | 34

41. Cc1cc(Cl)cc(Cl)c1OCC(=O)NCc1ccco1
42. O=C1CCCN1c1ccc(N2CCCC2=O)cc1
43. O=C1[C@H]2[C@@H](c3ccc(C(F)(F)F)cc3)N[C@]3(CCCN(Cc4ccc(C(F)(F)F)cc4)C3=O)[C@H]2C(=O)N1Cc1ccccc1
44. COc1ccc(CCN(C(=O)c2ccco2)C(C(=O)NC2CCCC2)c2ccncc2)cc1OC (stereo not drawn)
45. COc1ccc(-n2c(C)cc(C(=O)COC(=O)c3ccc(O)cc3O)c2C)cc1
46. CCCn1c(NC(=O)c2ccc([N+](=O)[O-])o2)nc2ccccc21
47. Cc1cccc(CNC(=O)C2CCCN(c3nn4c(=O)cc(C)nc4s3)C2)c1 (stereo not drawn)
48. C[C@H](NC(=O)c1ccco1)C(=O)Nc1nnc(SCc2ccccc2)s1

entry no. | 41 | 42 | 43 | 44 | 45 | 46 | 47 | 48
D2 potentiator | 7 | -4 | -4 | -2 | 5 | 15 | -3 | -2
gsp ag | -35%[inhibitor] | 13% | 12% | ? | 4% | -19% | -45%[inhibitor] | -1%
D2 ag | -1.8 | -1.8 | -5.6 | 5.9 | 12 | -1.8 | 1.5 | 3.5
gsp antag | -11% | 6% | . | -12% | 32µM* | -5% | -1% | 0%
CtBP-E1A inh | 2 | -9 | 4 | 2 | ? | -3 | -3 | 8
Six1-Eya2 blk | -6 | 1 | -8 | 7 | -19 | -15 | -2 | 2

49. C/C(=C\c1ccco1)CN1CCC(N2CCC(C(=O)N3CCOCC3)CC2)CC1
50. OC[C@@H](O)[C@@H](O)[C@H](O)[C@@H](O)CO
51. O=C(NC(NC1CCS(=O)(=O)C1)C(=O)c1cccs1)c1ccccc1 (stereo not drawn)
52. O=C1NC(c2cc(Cl)cc([N+](=O)[O-])c2O)Nc2ccccc21 (stereo not drawn)
53. Cc1cc([N+](=O)[O-])nn1Cc1ccc(C(=O)N/N=C/c2ccc(F)cc2)cc1
54. CCCCNC(=O)CC1S/C(=N/N=C/c2ccc(OC)cc2)NC1=O (stereo not drawn)
55. COc1cccc(N2CCN(c3cnc4ccccc4n3)CC2)c1
56. COc1cc(Cl)cc(C#N)c1OCC(=O)O

entry no. | 49 | 50 | 51 | 52 | 53 | 54 | 55 | 56
D2 potentiator | -2 | -19 | 5 | -6 | -10 | -2 | 2 | -2
gsp ag | 8% | . | -34%[inhibitor] | -15% | 3%[15.4 µM] | 5%[15.4 µM] | 15%[15.4 µM] | -43%[inhibitor]
D2 ag | -1.6 | -6.3 | -0.4 | -11 | -2.0 | -0.8 | -1.3 | -3.3
gsp antag | 6% | 9% | -2% | ? | -13% | 6% | 45µM* | 3%
CtBP-E1A inh | . | 15 | -2 | 1 | -6 | 0 | 16 | 15
Six1-Eya2 blk | 1 | 3 | 4 | -3 | 0 | 2 | 3 | 4
